Source: PubChem BioAssay
Six1-Eya2 blk – qHTS Assay for Inhibitors of the Six1/Eya2 Interaction; activity change, % (no concentration beside the values); AlphaScreen GST-Six1/His-Eya2 binding, biochemical; stronger effect = lower value; control for the full effect not named in the record; Homeobox protein SIX1 (Homo sapiens) + Protein phosphatase EYA2 (Homo sapiens), …; actives 0.56% (n = 360,000); in the data active = activity change below about -65%; inconclusive = about -30% to -65%; inactive = above about -30%; note: % is set by controls: 0 for no effect and ±100 for the full control effect; compound concentration not given in the record
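Homogeneous AlphaScreen proximity assay pairing GST-Six1 with His-tagged Eya2 (added as 5X mix: 250 nM and 500 nM) in 50 mM Tris pH 8.0, 300 mM NaCl, 1 mM TCEP. Glutathione donor and nickel acceptor beads; 1 h, 37 °C, dark.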
D2 agonist – Beta-Arrestin HTS for Positive Allosteric Modulators of the Human D2 Dopamine Receptor: Agonists; D(2) dopamine receptor (Homo sapiens), P14416; activation, % (concentration not given with the values); actives 0.084% (n = 360,000); AID 624465, 2012; DiscoveRx PathHunter D2 beta-arrestin, luminescence, 90 min; 100% = 57 uM dopamine signal; in the data active = activation above about 40%; inconclusive = about 15% to 40%; inactive = below about 15%; note: compound concentration not given in the record; the text of the record calls up to 30% inactive
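DiscoveRx PathHunter D2 beta-arrestin cells (2,100/well) attached overnight, then compound-stimulated 90 min at 37 C in HBSS/10 mM HEPES/0.1% Tween-20 buffer; beta-galactosidase complementation read by luminescence after 1 h at ambient temperature. Dopamine 57 uM final (EC100) as control.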
TRPV1 potentiator – HTS Assay for Compounds that Act as Potentiators of the Vanilloid Receptor 1 | Transient receptor potential cation channel subfamily V member 1 (Homo sapiens), Q8NER1 | TRPV1-expressing cells, Fluo-8 calcium influx, capsaicin EC20 potentiation; host cell line not named in the record; control for the full effect not named in the record | potentiation, % at 8.33 µM | actives 0.02% (n = 320,000); active means potentiation above 80%; inconclusive means 30% to 80%; inactive means below 30%; note: 0% is about no effect
Target sequence (Q8NER1 whole entry, looked up): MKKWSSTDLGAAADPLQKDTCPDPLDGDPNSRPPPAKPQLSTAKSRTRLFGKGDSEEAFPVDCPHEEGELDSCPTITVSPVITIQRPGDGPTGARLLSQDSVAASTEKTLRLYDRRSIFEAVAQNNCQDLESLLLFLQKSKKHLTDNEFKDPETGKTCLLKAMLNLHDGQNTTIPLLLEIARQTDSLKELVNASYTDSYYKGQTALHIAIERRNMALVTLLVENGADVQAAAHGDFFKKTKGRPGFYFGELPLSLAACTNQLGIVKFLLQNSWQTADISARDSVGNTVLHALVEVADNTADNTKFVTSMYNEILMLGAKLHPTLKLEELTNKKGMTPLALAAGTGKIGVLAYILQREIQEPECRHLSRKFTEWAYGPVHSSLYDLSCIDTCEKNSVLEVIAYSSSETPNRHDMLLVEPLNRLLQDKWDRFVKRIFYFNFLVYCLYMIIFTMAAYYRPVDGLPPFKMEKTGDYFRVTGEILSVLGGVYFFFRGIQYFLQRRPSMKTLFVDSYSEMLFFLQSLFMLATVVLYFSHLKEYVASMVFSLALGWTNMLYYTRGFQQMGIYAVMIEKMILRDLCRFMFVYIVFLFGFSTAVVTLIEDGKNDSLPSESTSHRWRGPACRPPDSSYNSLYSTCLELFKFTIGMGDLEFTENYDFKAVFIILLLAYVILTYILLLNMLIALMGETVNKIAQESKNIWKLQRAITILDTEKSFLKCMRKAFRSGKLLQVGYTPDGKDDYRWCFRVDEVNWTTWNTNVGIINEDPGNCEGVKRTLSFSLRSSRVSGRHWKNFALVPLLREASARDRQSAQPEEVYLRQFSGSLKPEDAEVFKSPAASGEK
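Cells expressing TRPV1 were dye-loaded with Fluo-8 and read kinetically: 10 s baseline, 3 min after compound (agonist portion), then 2 min after EC20 capsaicin (allosteric enhancer portion). Calcium-bound dye fluorescence at 480/520 nm.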
PINK1 modulator – A Quantitative High throughput Screen to Identify Chemical Modulators of PINK1 Expression; PINK1 immunofluorescence, high-content cytometry, 24 h; Potency, µM (highest dose often 76.6 µM), for inactives: at the highest dose activation (PINK1 increase), most hits filed as activators; actives 0.2% (n = 410,000); active = well fitted activation curve with a large enough effect; inconclusive = small, poorly fitted or top-dose-only effect; inactive = flat fitted curve, though single readings scatter; cell line not stated here;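 note: potency is the fitted concentration of half-maximal effect; % of control where 0% means no effect; nearly all actives have a fitted effect of over 65% in size; a mitochondrial uncoupler was the plate control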
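PINK1 protein level read as immunofluorescence by microplate cytometer in a fixed, stained stable cell line after 24 h exposure to five compound concentrations, with CCCP as control.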
D2 potentiator – Beta-Arrestin HTS for Positive Allosteric Modulators of the Human D2 Dopamine Receptor: Potentiators | D(2) dopamine receptor (Homo sapiens), P14416 | DiscoveRx D2 beta-arrestin cells, luminescence, 90 min; 100% = 57 uM dopamine signal | potentiation, % (no concentration beside the values) | actives 0.23% (n = 360,000) | AID 624464, 2012; active = potentiation of 50% or more; inconclusive = 30% to 50%; inactive = 30% or less;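 note: compound concentration not given in the record; tested on top of an EC20 dose of dopamine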
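PathHunter D2 cells, attached overnight at 37 deg C, received compound in DMSO plus dopamine at EC20 (50 nM final) for 90 min at 37 deg C. Beta-arrestin recruitment was read as luminescence after 1 h with detection reagent at ambient temperature.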
Sfp inh – qHTS Assay for Inhibitors of Bacillus subtilis Sfp phosphopantetheinyl transferase (PPTase). Biochemical Sfp PPTase activity, qHTS. Potency, µM, inactives show max response, negative = inhibition, hits mostly inhibitors. actives 3.5% (n = 310,000); active = well fitted inhibition curve with a large enough effect; inconclusive = small, poorly fitted or top-dose-only effect, or another doubt; inactive = no such curve, though single readings can be large or run the other way;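 note: the enzyme is Sfp with the accession as filed and its product quenches rhodamine fluorescence; potency is the fitted concentration of half-maximal effect; 0% = enzyme reaction without inhibitor and -100% = no enzyme wells; top concentration of the series not given in the record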
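Sfp 15 nM + cpd, 15 min RT; start w/ rhodamine-CoA 5 uM, BHQ-2-YbbR 12.5 uM (final); 50 mM Hepes pH 7.6, 10 mM MgCl2, 0.01% NP-40, 0.01% BSA; read 525/598 nm at 0 and 30 min.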
CtBP-E1A blk – qHTS Assay for Inhibitors of the CtBP/E1A Interaction; CtBP / adenovirus E1A interaction (AlphaScreen); AlphaScreen GST-E1A/His-CtBP binding, 1536-well; stronger effect = lower value; control for the full effect not named in the record; activity change, % (concentration not given with the values); actives 0.49% (n = 340,000); AID 651724, 2012; in the data active means activity change below about -65%; inconclusive means about -30% to -65%; inactive means above about -30%; note: % is set by controls: 0 for no effect and ±100 for the full control effect
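Steps: dispense buffer (Tris pH 8.0, NaCl 300 mM, TCEP 1 mM, BSA, Tween 20); add 5X protein mix (GST-E1A, His-CtBP, 125 nM each); pin 23 nL compound; 2 h at 37 °C, dark; add 5X beads (50 ug/mL); 1 h; read.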
Active calls of the source: *; ? = inconclusive; . = not tested or not shown; ! = repeats disagree; [ ] = another dose, or the depositor's remark. Random draw from the library (roughly 3.7% active in at least one column).

smiles,D2 potentiator,Six1-Eya2 blk,PINK1 modulator,D2 agonist,Sfp inh,CtBP-E1A blk,TRPV1 potentiator
O=C(CCc1ccccc1)NCCSCc1c(F)cccc1Cl,-7,13,2.5%,-3.0,3%,1,1
Cc1c(C(=O)N2CCOCC2)sc2ncn(CC(=O)N3CCC(C)CC3)c(=O)c12,0,0,-4.7%,-5.4,14%,-9,-13
Nc1ncnc2c1ncn2-c1ccccc1Cl,-1,-6,-1.3%,-2.7,.,0,.
CCCn1c(SCC(=O)Nc2ccc(F)c(Cl)c2)nc(O)cc1=O,-2,0,5.9%,7.9,.,.,.
CC(=O)Nc1cc(-c2ccccc2F)cn2c(-c3ccccc3)cnc12,1,-10,1.4%,6.5,.,-3,.
CC1(C)Cc2nc3oc4c(=O)n(CC(=O)Nc5ccccc5)cnc4c3cc2CO1,-6,-6,4.4%,-2.3,19%,3,-8
COC(=O)c1cn(NC(=O)CCC2CCCC2)c(=O)c2ccccc12,-34,0,-1.6%,-3.1,-18%,11,-15
COc1ccc(CCNC(=O)Cn2cc(C(F)(F)F)cc(Cl)c2=O)cc1OC,-7,10,6.5%,-0.5,4%,7,-15
COC(=O)CC1C(=O)NCCN1C(=S)NC(=O)c1ccccc1[N+](=O)[O-] (stereo unspecified),-7,-9,-2.6%,-1.6,79µM*,9,-1
COc1cc(C(=O)NCc2nnc(SCC(=O)Nc3cccc(C)c3)o2)cc(OC)c1OC,-5,-1,0.4%,-2.8,20%,-5,-5
CCC(C)[C@@H](CN)NCC1(c2ccccc2)CC1 (stereo partly specified),-16,8,4.8%,-3.0,.,12,-1
CCN1CCN(CCCNC(=O)c2ccc3c(=O)n(CCc4ccccc4)c(=O)[nH]c3c2)CC1,-9,10,0.7%,-2.6,16%,0,-5
CC(C)N(C(=O)COC(=O)c1cncc(Br)c1)C(C)C,-8,4,-0.4%,-2.4,13%,8,2
O=C(NN1C(=O)c2ccccc2NC1c1ccco1)c1ccc([N+](=O)[O-])cc1 (stereo unspecified),1,0,2.6%,-1.3,21%,.,3
O=C(O)c1nn(CC(=O)N2CCN(c3ccccc3)CC2)c(=O)c2ccccc12,-5,7,-0.7%,-5.6,10%,-2,27
Cc1ccc(C)c(-c2nn(-c3cc(N4CCN(CCO)CC4)ccc3[N+](=O)[O-])c(=O)c3ccccc23)c1,-15,-24,1.3%,-2.2,-26%,-17,-14
O=C(c1ccco1)N1CCN(Cc2cn[nH]c2-c2ccc(F)cc2F)CC1,4,0,-1.5%,3.9,4%,.,24
O=C(NCc1ccccn1)C1CC(c2ccc(F)cc2)=NO1 (stereo unspecified),1,5,-2.2%,-3.9,12%,3,?
c1ccc(C2[C@H]3CN(Cc4cccnc4)[C@H](c4ccccc4)C34CC2(c2cccnc2)C4)cc1 (stereo partly specified),-22,-16,0.9%,-6.4,56µM*!,?,-26
CSc1cccc(NC(=O)C2CCN(S(C)(=O)=O)CC2)c1,-4,3,.,1.3,12%,7,-9
CC(C)C(=O)Nc1ccc(COc2ccccc2CN(Cc2ccccc2)C(=O)OC(C)(C)C)cc1,-5,2,-1.1%,-3.2,.,5,.
COc1ccc2oc(C(=O)OCC(=O)Nc3ccc(N4CCOCC4)cc3)c(C)c2c1,16,-1,10%,-2.3,.,-4,7
O=C(CN1CCN(c2ccc(F)cc2)CC1)Nc1nccs1,-2,-2,1.8%,-1.1,0%,2,1
Cc1c(Cc2ccccc2)c(=O)oc2c(C)c(OCC(=O)Nc3ccc(C#N)cc3)ccc12,-1,1,5.6%,-5.1,-14%,2,6
CCOc1ccccc1C(=O)NC(C)c1ccc2c(c1)OCO2 (stereo unspecified),-2,0,6.1%[38.3 µM],-1.0,6%,6,-6
Cc1cc2oc(=O)cc(CN3CCN(c4ccccc4)CC3)c2cc1Cl,-3,2,-0.8%,-3.7,.,7,.
CCN(Cc1cc(=O)n2ccsc2n1)c1cccc2ccccc12,-3,1,-0.2%,4.2,-13%,.,8
CN(C)CCCNc1nc2cc(-c3ccc4c(ccn4C)c3)sc2c(=O)n1C,-1,-1,5.3%,-2.9,.,-4,.
CCc1ccc(-n2c(SCC(=O)Nc3cccc(S(=O)(=O)NC4=NCCCCC4)c3)nc3ccccc3c2=O)cc1,-5,1,0.5%,2.5,-3%,2,-5
C=C1CCN(c2ccc(C(=O)O)cc2[N+](=O)[O-])CC1,-18,2,-0.7%,-4.2,.,19,.
O=C(NC1CCN(S(=O)(=O)c2ccc(F)cc2)CC1)c1ccccc1,2,5,11%,8.0,5%,2,0
Cc1ccc2c(c1)N(C)/C(=C/c1cccc[n+]1CCO)S2,-8,0,3.8%,4.6,3%,-1,-7
COc1cc(CN2CCN(C(c3ccccc3)c3ccccc3)CC2)cc(OC)c1OC,-7,-23,17%,3.1,?,.,-12
Cc1ccc(NC(=O)C2(N(CC(C)C)C(=O)Cn3nnnc3N)CCCCC2)cc1,1,3,4.5%[38.3 µM],-2.0,18%,-3,2
CCN(C(=O)CN1C(=O)S/C(=C\c2ccc(F)cc2)C1=O)C1CCS(=O)(=O)C1 (stereo unspecified),-5,2,0.3%,0.5,11%,0,29
CCn1c(O)c(C=Nc2ccccc2)oc1=S,-4,-1,6.4%,-1.6,?,16,4
CCOc1cccc(OCCCOc2ccccc2)c1,3,123,14%,-1.7,-5%,104,1
CCc1cccc(NC(=O)COC(=O)/C=C/c2cccs2)c1,-6,4,1.1%,-4.0,.,2,6
O=C(O)c1cccc(Oc2ncnc3sc4c(c23)CCCC4)c1,-1,1,3.6%,-2.5,12%,1,-9
Nc1cccc(S(=O)(=O)c2cccc(N)c2)c1,22,-1,-1.6%,-2.4,11%,14,0
COC(=O)c1c(C(=O)OC)c(-c2ccc(OC)cc2)n2c1CS(=O)(=O)C2,-5,-1,-1.2%,0.5,?,5,2
CCOC(=O)C1=C(C)N(CC(C)C)C(=O)C1,-7,-2,1.8%,-7.1,16%,10,-5
COc1ccc(/C=N/c2oc(C)c(C)c2C#N)c(OC)c1,-1,-4,-0.2%,-5.5,-5%,11,-7
CCN1CCN(c2cc(C)c3cc(NC(=S)N4CCN(c5ccccc5)CC4)ccc3n2)CC1,-9,6,6.1%,2.2,14%,-1,9
COCCN(C(=O)CCCc1nc2ccccc2s1)c1c(N)n(CC(C)C)c(=O)[nH]c1=O,-1,-2,2.8%,-1.4,.,3,7
CC(C)(C)OC(=O)N1CC=C2C(C#N)=C(N)C(C#N)(C#N)C(c3cccs3)C2C1 (stereo unspecified),-22,-8,8.2%,-5.3,?,-12,.
Cc1ccc(S(=O)(=O)N(C)C)cc1N,-2,-11,1.3%,3.8,11%,3,6
COc1ccc(CCNC(=O)COC(=O)c2cc(Cl)nc(Cl)c2)cc1,-11,2,1.5%,1.3,.,.,.
Cc1cc2c(cc1C)C(=O)C(=O)N2,-4,2,2.8%,-4.9,.,5,.
CCOC(=O)C1=C(CN2CCCCC2)NC(=O)NC1c1cc(C)ccc1C (stereo unspecified),4,4,-1.8%,1.8,-4%,3,0
Cc1ccc(N2CCN(C(=S)Nc3ccc(Cl)cc3)CC2)cc1,-4,-1,1.9%,-4.8,0%,6,-1
CCc1ccccc1NC(=O)CN(C)Cc1c(O)ccc2ccccc12,6,-1,-0.2%,4.0,-7%,20,18
O=C(/C=C/c1ccc(Cl)cc1Cl)NCc1ccncc1,-35,-6,.,-1.0,4%,2,0
CC(C)c1ccc(NC(=O)Nc2nnc([C@@H]3C[C@H](O)[C@@H](CO)O3)s2)cc1,2,-9,0.3%,-4.6,.,-2,.
CCOC(=O)c1nnn(-c2nonc2-n2cccc2)c1CN1CCOCC1,4,-2,21%[38.3 µM],1.1,12%,8,?
CCc1ccc(NS(=O)(=O)c2c(C(=O)N3CCCCCC3)c(C)n(C)c2C)cc1,-9,-4,1.2%,-4.6,2%,-2,15

More records.
smiles,D2 potentiator,Six1-Eya2 blk,PINK1 modulator,D2 agonist,Sfp inh,CtBP-E1A blk,TRPV1 potentiator
CCOC(=O)c1sc(NC(=O)c2ccc(=O)[nH]c2)nc1C,2,-1,-1.4%,-10.0,13%,-1,1
CN(C)S(=O)(=O)c1cccc(NC(=S)NCCc2ccccn2)c1,-11,9,-2.7%,-3.2,-6%,.,-4
CC(NC(=O)CSc1ncn[nH]1)c1ccc(Cl)cc1Cl (stereo unspecified),5,11,3.1%,1.2,10%,21,-14
Cc1ccc(NC(=O)c2cc(=O)c3ccccc3o2)cc1S(=O)(=O)N1CCCCC1,-3,?,5.3%,1.2,10%,-6,-5
O=C(Nc1cccc(-c2cnc3ccccc3n2)c1)c1ccncc1,4,-4,11%,8.3,-10%,1,-16
COc1ccc(NS(=O)(=O)c2cccc(C(=O)NCc3ccco3)c2)cc1,27,-11,0.2%,-0.1,.,11,9
NS(=O)(=O)c1ccc(CCNC(=O)COC(=O)c2cc([N+](=O)[O-])ccc2N2CCOCC2)cc1,-1,8,2.7%,-3.7,.,0,-3
CCOC(=O)c1n[nH]n2c1nc(=S)c1ccccc12,-6,?,2.3%,-5.4,?,-26,1
CCN1CCCc2cc(CN(CCN3CCOCC3)C(=S)Nc3ccc(OC)c(OC)c3)ccc21,-7,-5,3.8%,-1.9,16%,-13,-2
CC(C)(C)NC(=O)COC(=O)c1ccc(Cl)cc1O,-5,0,1.9%,0.2,18%,0,-7
Cc1cc(N=Cc2c(O)n(-c3ccc4c(c3)OCO4)c(=O)c3ccccc23)ccn1,6,-9,-2.8%,-0.1,?,-5,-21
O=C1NC(c2ccccc2)=CC(c2ccccc2)N1 (stereo unspecified),4,0,2.5%,6.6,18%,1,2
